# PINK1 expr mod – PINK1 expression modulation; Potency, µM (doses to about 76.6 µM), for inactives: top-dose activation (PINK1 increase), usual class: activators; actives 0.2% (n = 410,000); AID 624263; PINK1 immunofluorescence, high-content cytometry, 24 h; active = well fitted activation curve with a large enough effect; inconclusive = small, poorly fitted or top-dose-only effect; inactive = flat fitted curve, though single readings scatter; cell line not stated here;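 further: potency means the concentration at half of the fitted maximal effect; % of control where 0% means no effect; nearly all actives have a fitted effect of over 65% in size; a mitochondrial uncoupler was the plate control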
#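 Fluorescence from anti-PINK1 antibody, together with nuclear and cell stains, was scanned on a laser-scanning cytometer. Before staining, stable-line cells were incubated 24 hours with compounds at 5 concentrations; primary antibody 12 h at 10 degrees C.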
# Menin MLL FP FL – menin-MLL binding inhibition, fluorescein peptide; Fluorescence polarization, fluorescein-MLL peptide displacement from menin; FP activity change, % at 61.4 µM; 290,000 tested, under 10 active; AID 1766; inconclusive = falling polarisation curve, or a change in total fluorescence; inactive = total fluorescence flat and polarisation flat or rising; no compound was filed as active; the % refers to the polarisation; negative = inhibition;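 further: % of control where 0% means no effect; inhibitors lower the polarisation; unlabelled MLL peptide was the positive control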
# gsp antag – gsp mutant antagonism | gsp-mutant cells, cAMP HTRF, 30 min; control for the full effect not named in the record | Potency, µM (series often up to 76.9 µM), inactives show top-dose activity change, negative = inhibition, hits mostly inhibitors | actives 0.4% (n = 340,000) | AID 624288; active = falling curve of any shape with a large fitted effect; inconclusive = falling curve, mostly with a smaller effect; inactive = flat or rising curve; cell line not stated here;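 further: intracellular cAMP measured with PDE inhibitor Ro 20-1724 present during compound exposure; potency means the concentration at half of the fitted maximal effect; on the % scale 0 is the no-effect control and ±100 the full control effect; nearly all actives have a fitted effect of over 65% in size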
#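 HTRF cAMP read-out (cAMP-d2 plus anti-cAMP antibody-K in lysis buffer, 30 min RT). Before lysis, cells are exposed to compounds with […] for 30 min at 37C in DPBS containing Ca/Mg, BSA and Tween 20.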
# gsp ag – activates gsp, the McCune-Albright syndrome mutation. gsp mutant cells, cAMP HTRF, 30 min; control for the full effect not named in the record. Potency, µM (highest dose often 76.9 µM), without a hit: top-dose activation (cAMP increase), actives largely listed as activators. actives 0.13% (n = 340,000); active = well fitted activation curve with a large enough effect; inconclusive = small, poorly fitted or top-dose-only effect, or another doubt; inactive = no such curve, though single readings can be large or run the other way; cell line not stated here;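 further: phosphodiesterase inhibitor Ro 20-1724 added with compounds to block cAMP breakdown; potency means the concentration at half of the fitted maximal effect; nearly all actives have a fitted effect of over 60% in size; about a fifth of the inactives were tested at one dose only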
#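 Cells in DMEM/10% FBS with G418 were pretreated with compounds in DMSO plus […] (300 uM stock) for 30 min at 37C. cAMP was measured by HTRF (cAMP-d2 plus anti-cAMP antibody-K) after 30 min at room temperature.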
# D2 agonist – agonists of human D2 dopamine receptor (beta-arrestin); P14416; DiscoveRx PathHunter D2 beta-arrestin, luminescence, 90 min; 100% = 57 uM dopamine signal; activation, % (no concentration beside the values); actives 0.084% (n = 360,000); AID 624465; in the data active = activation above about 40%; inconclusive = about 15% to 40%; inactive = below about 15%; further: compound concentration not given in the record; the text of the record calls up to 30% inactive
# Target sequence (P14416 whole entry, looked up): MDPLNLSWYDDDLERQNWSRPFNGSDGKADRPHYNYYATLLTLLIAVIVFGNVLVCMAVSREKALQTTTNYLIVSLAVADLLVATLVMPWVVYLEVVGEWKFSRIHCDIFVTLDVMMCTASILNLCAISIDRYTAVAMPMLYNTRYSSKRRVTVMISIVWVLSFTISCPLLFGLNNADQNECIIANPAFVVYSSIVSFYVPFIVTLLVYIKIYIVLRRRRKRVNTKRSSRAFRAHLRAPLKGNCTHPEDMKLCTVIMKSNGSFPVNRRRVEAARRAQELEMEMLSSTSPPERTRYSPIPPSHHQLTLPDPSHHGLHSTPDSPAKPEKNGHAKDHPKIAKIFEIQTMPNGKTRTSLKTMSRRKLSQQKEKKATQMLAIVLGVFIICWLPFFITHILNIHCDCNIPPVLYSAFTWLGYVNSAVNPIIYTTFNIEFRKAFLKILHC
#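 DiscoveRx PathHunter D2 beta-arrestin cells (2,100/well) attached overnight, then compound-stimulated 90 min at 37 C in HBSS/10 mM HEPES/0.1% Tween-20 buffer; beta-galactosidase complementation read by luminescence after 1 h at ambient temperature. Dopamine 57 uM final (EC100) as control.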
# ClpP mod – qHTS Assay for Activators of ClpP; ATP-dependent Clp protease proteolytic subunit (Bacillus subtilis (strain 168)), P80244; purified B. subtilis ClpP, FRET peptide cleavage, 20 min; Potency, µM (titrated, usually from 57.5 µM), for the others: at the highest dose activity change, negative = active; actives 1.9% (n = 340,000); active = well fitted falling curve with a large enough effect; inconclusive = small, poorly fitted or top-dose-only effect; inactive = no such curve, though single readings can be large or run the other way; further: potency means the concentration at half of the fitted maximal effect; the source files actives as falling curves though it sought activators and does not explain the sign; nearly all actives have a fitted effect of over 65% in size; many hits overshoot -100%
# Target sequence (P80244 whole entry, looked up): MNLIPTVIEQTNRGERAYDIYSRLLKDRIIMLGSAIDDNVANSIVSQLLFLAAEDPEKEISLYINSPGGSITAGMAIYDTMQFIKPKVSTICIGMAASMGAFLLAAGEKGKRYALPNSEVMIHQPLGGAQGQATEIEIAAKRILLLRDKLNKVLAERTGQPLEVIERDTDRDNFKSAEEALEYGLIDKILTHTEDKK
#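 ClpP 10 microg/mL final, pH 8 Tris/KCl buffer with BSA, glycerol, Tween-20; compound pinned in; FRET-FV substrate; RT 20 min; Ex320/Em430; ΔFRET vs ADEP 5.8 microM, DMSO, no enzyme.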
# Sfp inh – Sfp phosphopantetheinyl transferase inhibition; Biochemical Sfp PPTase activity, qHTS; AID 1490; actives 3.5% (n = 310,000); Potency, µM, without a hit: max response, negative = inhibition, hits mostly inhibitors; active means well fitted inhibition curve with a large enough effect; inconclusive means small, poorly fitted or top-dose-only effect, or another doubt; inactive means no such curve, though single readings can be large or run the other way;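 further: the enzyme is Sfp with the accession as filed and its product quenches rhodamine fluorescence; potency means the concentration at half of the fitted maximal effect; 0% = enzyme reaction without inhibitor and -100% = no enzyme wells; top concentration of the series not given in the record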
#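 Fluorescence-quenching assay with 15 nM Sfp, 5 uM rhodamine-CoA and 12.5 uM BHQ-2-labelled ybbR peptide in pH 7.6 Hepes/MgCl2 buffer. Enzyme was pre-incubated with compound for 15 min at room temperature. Rate was taken from the 30-min fluorescence change (525/598 nm).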
# The depositor's hits bear a star; ? = inconclusive; . = no result given; & = joins results of further samples; [ ] = another dose, or the depositor's remark.
SMILES,PINK1 expr mod,Menin MLL FP FL,gsp antag,gsp ag,D2 agonist,ClpP mod,Sfp inh
COc1ccc(OCC(=O)Nc2ccccc2C(=O)Nc2ccc(C(=O)O)cc2)cc1,0.6%,.,-28%,1%,-4.3,1.3%,3%
O=C(CNC(=O)c1ccc(Cl)cc1Cl)OCc1ccccc1,1.8%,.,-5%,-9%[15.4 µM],-0.9,.,.
Cc1c(NS(=O)(=O)c2cc([N+](=O)[O-])ccc2Cl)c(=O)n(-c2ccccc2)n1C,2.2%,.,-15%,-7%[15.4 µM],-4.3,-1.5%,.
O=C(COc1ccc2ccccc2c1)NCCNC(=O)COc1ccc2ccccc2c1,-2.5%,4.0,?,-22%,0.1,-4.1%,2%
CCCCNC(=O)NS(=O)(=O)c1ccc(C(=O)OC(C)C)o1,-1.9%,-1.1,-13%,0%,-2.2,2.1%,15%
COc1ccc(NC2CCCN(Cc3cccc4cnccc34)C2)cc1 (centres undefined),-1.0%,-3.9,0%,-6%,-1.5,0.4%,25%
Cn1c(CC(=O)NN)c(Sc2ccccc2)c2ccccc21,-1.7%,1.7,3%,-13%,4.5,0.4%,-2%
CCOC(=O)/C(C#N)=C/c1cc(C)n(-c2ccccc2)c1C,6.7%,2.6,20%,17%,-3.3,-3.2%,-8%
CCCCN(CC)CCNC(=O)CCNC(=O)Cn1ccc2ccccc2c1=O,0.3%,-2.3,0%,4%,-1.1,.,18%
CCc1csc(CNC(=O)C2CCC(=O)N(Cc3cccc(F)c3)C2)n1 (centres undefined),1.1%,.,12%,3%[15.4 µM],3.2,0.8%,8%
CC(=O)NCC(O)c1ccc([N+](=O)[O-])cc1 (centres undefined),0.8%,4.8,1%,13%,-6.1,2.3%,14%
Cc1csc(=O)n1CC(=O)Nc1ccc(Cl)c(Cl)c1,6.7%,.,-2%,27%,2.3,-0.9%,.
CCN1CCN(CC(=O)Nc2cc(F)ccc2C)CC1,1.0%,0.6,-4%,-3%,-0.7,0.2%,13%
Cc1ccc(Nc2c(-c3ccccn3)nc3cc(C)ccn23)cc1,?,-3.9,-5%,17%[15.4 µM],-9.6,.,1%
Cc1ccc(CNC(=O)COC(=O)c2ccc(S(=O)(=O)N3CCCC3)cc2)cc1,1.8%,-1.1,2%,24%,1.7,-1.5%,9%
C/C(=N/Nc1nc(-c2ccccc2)cc(-c2ccc(F)cc2)n1)c1cccc(N)c1,0.4%,0.2,-29%,-26%,-3.8,-6.1%,-9%
CC(C)(C)n1ncc2c(=O)n(CC(=O)Nc3ccccc3)cnc21,-0.2%,1.8,-1%,?,-1.5,-0.7%,15%
C/C(N)=C(/C#N)C(=O)CSc1ccccc1F,0.7%,-3.3,11%,9%[15.4 µM],-0.8,.,22%
O=C(C#Cc1ccccc1)c1cccc([N+](=O)[O-])c1,-3.6%,1.5,6%,28%,-7.8,1.5%,-24%
CCOC(=O)c1ccc(CC(=O)c2ccc(O)c(O)c2O)o1,0.8%,7.0,-5%,-5%[15.4 µM],6.8,.,6.3µM*
Cc1nc(Cl)c(C(=O)NCCC(C)C)c(C)c1[N+](=O)[O-],-0.4%,0.4,8%,-1%,-1.7,-1.0%,12%
O=C1C2CCCCC2C(=O)N1c1ccc(S(=O)(=O)Nc2ncccn2)cc1 (centres undefined),1.8%,.,1%,-70%[inhibitor],-1.5,16µM*,20%
O=C(COC(=O)c1nc(Cl)ccc1Cl)NC1CCS(=O)(=O)C1 (centres undefined),-1.9%,.,7%,-15%[15.4 µM],-5.0,41%,.
O=C1C(=O)N(c2ccccn2)C(c2cccc(F)c2)/C1=C(/O)c1ccccc1 (centres undefined),7.9%,-1.0,15%,14%,-2.2,-0.2%,26%
COCCCNC(=S)NC(=O)c1ccc([N+](=O)[O-])cc1,1.0%,-2.2,9%,13%,3.0,-1.8%,-10%
CCOc1ccc(NC(=O)CN(C)C(=O)c2cc(-c3ccco3)nc3ccccc23)cc1OCC,-0.7%,.,-13%,-2%[15.4 µM],13,.,.
O=C(CCSc1ccc(Br)cc1)Nc1cccnc1,1.0%,-0.5,-1%,28%,1.5,.,12%
CCOC(=O)c1[nH]cnc1C(=O)Nc1ccc(F)cc1,-0.2%&0.7%,-8.2,-2%,2%[15.4 µM],-3.9,-1.1%,17%
O=C(/C=C/c1ccc(F)cc1)Nc1cccc(S(=O)(=O)Nc2cccc(C(F)(F)F)c2)c1,4.0%,1.5,-22%,19%,5.1,2.5%,14%
CCOC(=O)CN1C(=O)S/C(=C/c2ccc(OC)c([N+](=O)[O-])c2)C1=O,8.1%,-1.3,-3%,20%,-3.0,.,11%
COc1ccc(C(=O)N(CN2CCCC2=O)c2ccc(C)cc2)cc1,.,4.6,?,13%,3.0,-1.6%,4%
CCN1CCN(S(=O)(=O)c2ccc(Cl)c(C(=O)NCCOc3ccc(C)cc3)c2)CC1,-0.1%,.,3%,-1%,0.0,?,.
COc1ccc(CN2CCNC(=O)C2CC(=O)NCC2CCOCC2)c(C)c1C (centres undefined),0.1%,0.8,11%,15%,-3.7,-2.6%,-6%
Cc1[nH]c(C)c(C(=O)/C=C/c2ccc([N+](=O)[O-])cc2)c1C,26%,-0.9,4%,-30%[inhibitor],3.4,1.2%,1%
CN1CSC2=C(C#N)C(c3cccc(OCc4ccccc4)c3)CC(=O)N2C1 (centres undefined),11%,1.7,-3%,-41%[inhibitor],4.4,0.7%,3.2µM*
CC(C)(C)c1ccc(OCCNC(=S)Nc2ccccc2)cc1,?,-0.8,-12%,0%[15.4 µM],6.3,.,1%
Cc1ccc(Cn2ccc(NC(=O)c3cc(-c4ccc(Br)cc4)on3)n2)cc1,3.3%[38.3 µM],1.9,9%,25%,-0.2,-17%,28%
NC(=O)C1CCN(C(=O)c2ccc3c(=O)n(Cc4cccc(Br)c4)c(=S)[nH]c3c2)CC1,11%,8.4,2%,-6%[15.4 µM],-6.0,0.2%,-9%
O=C(NCc1ccccc1)c1c(O)c2ccccc2[nH]c1=O,4.0%,-11,3%,14%[15.4 µM],-3.6,-0.2%,7%
CN(Cc1cnccn1)Cc1c(C(=O)N2CCc3ccccc3C2)nc2ccc(Cl)cn12,0.1%,-13,37%[activator],-17%,-3.3,-0.4%,?
COc1ccc(C)cc1S(=O)(=O)N(C)CC(=O)N1CCCCCC1,2.2%[38.3 µM],0.7,-3%,?,-0.3,0.1%,8%
CC(C)CNS(=O)(=O)c1ccc(CCC(=O)Nc2ccc3c(c2)OCO3)cc1,-1.7%,3.2,4%,7%,1.2,-0.5%,9%
CC(C)=CCC(C)(C)CNC(=O)NC1CCCCC1,4.7%,0.4,-3%,13%,-1.3,1.0%,18%
CC(=O)c1cc(-c2ccccc2)n(CC(=O)N2CCN(C3CCCC3)CC2)c1C,4.1%,-14,-2%,8%,-3.7,32µM*,-3%
CCN(CC)c1ccc(NC(=O)COc2ccc(N(C)S(=O)(=O)c3cccs3)cc2)cc1,4.9%,7.6,-2%,13%[15.4 µM],0.5,0.4%,?
N#Cc1ccccc1Sc1ccccc1C(=O)OCC(=O)N1CCN(C(=O)c2ccco2)CC1,-1.8%,-3.3,-17%,?,-2.4,-2.4%,-26%
CN1CCC(N(C)C(=O)c2ccccc2F)CC1,1.1%,-2.6,10%,-8%,1.5,-0.1%,-6%
Cc1cn([C@H]2C[C@H](O)[C@@H](CCC(=O)NCc3cccs3)O2)c(=O)[nH]c1=O,4.9%,.,.,.,-4.3,-1.4%,.
Cc1sc2ncnc(SCC(=O)NC(=O)c3cccn3C)c2c1C,5.9%,-0.8,-13%,12%[15.4 µM],8.8,.,-25%
COCCCNC(=O)CCc1c(C)nc2c(c(C)nn2-c2ccc(C)cc2)c1C,3.5%,-1.3,-22%,-1%,8.4,3.1%,-10%
S=C(NCCc1cccc(Cl)c1)NC1CCCCC1,?,-1.3,-12%,30%,-6.6,1.8%,-8%
CCc1ccc(CNc2ccc3c(c2)ncn3CC)cc1,1.3%,-1.1,-1%,14%[15.4 µM],-2.2,-17%,-2%
CCOC(=O)N1CCN(c2nc3c(C)cccn3c(=O)c2C=O)CC1,-0.4%,3.8,-4%,0%[15.4 µM],-0.8,.,6%
COc1ccc(-c2ccc(CN3C(C(C)C)C(=O)N(Cc4cn(CCC5OCCCO5)nn4)CCS3(=O)=O)cc2)cc1OC (centres undefined),-1.9%,.,.,?,-4.2,-8.4%,.
COC(=O)c1ccc2c(=O)n(-c3ccccc3)c(=S)[nH]c2c1,-0.3%,0.3,-13%,-33%,-0.7,0.1%,-8%
CCc1ccc(CNC(=O)C2CCN(S(=O)(=O)N3CCCCC3)CC2)cc1,1.3%,.,.,7%,-3.9,-1.1%,.
O=C(COC(=O)c1cccc(OC(F)F)c1)Nc1cc(S(=O)(=O)N2CCCC2)ccc1Cl,0.5%,.,.,28%,0.3,-3.3%,.
O=C(NCCc1ccccc1)C1CCCN1S(=O)(=O)c1ccccc1 (centres undefined),-2.1%,-0.8,1%,-26%,4.1,.,3%
CC(C)C(=O)N1CCC(c2nc(-c3ccc(S(=O)(=O)N4CCCC4)cc3)no2)CC1,1.0%[38.3 µM],3.9,0%,-28%,-0.3,-1.8%,17%
CCC(C)n1c(=N)c(C#N)cc2c(=O)n3ccccc3nc21 (centres undefined),-0.4%,2.2,-3%,?,0.0,-18%,13%
O=C(CSc1nnc(NC(=O)C2CC(=O)N(c3ccc(F)cc3)C2)s1)NC1CCCC1 (centres undefined),1.4%,.,2%,1%[15.4 µM],6.2,-0.6%,-20%
O=C1OCCC1Sc1nnc(-c2ccc(Br)cc2)o1 (centres undefined),6.6%,2.5,3%,30%,-2.7,-1.8%,2%
CCOc1ccc(/C=C2/C(=N)N3OC(C)=CC3=NC2=O)cc1OC,-0.5%,4.0,13%,16%,-6.0,1.2%,14%

# Source: PubChem (National Center for Advancing Translational Sciences (NCATS))
